Screens: PubChem, ICCB-Longwood Screening Facility, Harvard Medical School
MgrA-DNA mod: modulators of Staphylococcus aureus MgrA DNA binding | fluorescence polarization | inhibition, %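 (about 10 µg/mL by stock and volumes)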 | 0.13% of 84,000 active;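 active = above 50% in either of two replicates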;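 note: 0% = protein plus DNA without compound and 100% = DNA alone without protein; higher means less MgrA bound to DNA so lower polarization; one replicate is shown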
S aureus helic: S. aureus DNA helicase inhibition; purified S. aureus helicase, fluorescence unwinding assay; about half of the hits fall short of the stated cut; inhibition, %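 (tested at about 80 µM)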; 0.05% of 120,000 active;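 active = both duplicates at 50% or more, or one of them with a favoured structure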;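 note: 0% = mean of negative control wells and 100% = mean of positive control wells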
Numbers without * were called inactive; . = not tested or not shown; & = joins results of further samples. Only part of the results is shown, so the mix of outcomes need not match the whole.

SMILES	MgrA-DNA mod	S aureus helic
Cc1cc(C)cc(C(=O)OCC(=O)c2c(N)n(C)c(=O)n(C)c2=O)c1	.	2
Cc1nc2c(=O)n(C)c3c(c(=O)n(C)c(=O)n3C)c2o1	.	-9
O=C(c1ccc(Cl)cc1)C(Sc1ccc(Cl)cc1)c1ccccc1 (configuration not stated)	1.6	.
COc1nc(SC)nnc1C	.	-3
O=C(NCc1csc(-c2cccs2)n1)Nc1ccc(F)cc1F	.	16
Cc1cc(C)c(Nc2n[nH]c(=O)[nH]2)cc1C	.	-7
CCOC(=O)c1c(C)n(-c2ccccc2)c2ccc(OC(=O)c3ccccc3C)cc12	-1.6	.
CC(C)(C)C(=O)CSc1nnc(-c2ccccc2)o1	-16	6
CCN1C(=O)/C(=C2\C=Cc3cc(C)ccc3N2CC)OC1=S	.	-40
COc1ccc(C=Nc2cccc(C(N)=O)c2)cc1OC	-0.4	.
c1cn(-c2ccc(-c3ccn[nH]3)cc2)cn1	0.8	.
Clc1ccc(-c2nnc(NCCN3CCOCC3)c3ccccc23)cc1	-0.6	.
Cc1ccc2c(c1)NC(SCC(=O)NCc1ccccc1)=NS2(=O)=O	.	4
Cc1nc2nc(C(F)(F)F)[nH]c2cc1Br	2.1	9
CCCC(=O)Oc1c(Sc2ccccc2)c(C)nn1-c1ccccc1	4.7	21
N#C/C(=C/Nc1cccc(Cl)c1)c1nc(-c2ccc(F)cc2)cs1	.	18
CSc1ccc(/C=C/C(=O)N2CCC(C(N)=O)CC2)cc1	.	-6
COc1ccc(CNC(=O)c2c(O)nc3scc(C)n3c2=O)cc1	.	5
Cc1ccc(/C=C/C(=O)NCC(c2ccco2)N2CCCC2)o1 (configuration not stated)	.	-9
O=C(c1cccc2ccccc12)N1CCCc2ccccc21	-0.8	1

Ordered by molecular weight (descending): 17 of the compounds above.
SMILES	MgrA-DNA mod	S aureus helic
CCOC(=O)c1c(C)n(-c2ccccc2)c2ccc(OC(=O)c3ccccc3C)cc12	-1.6	.
Cc1ccc2c(c1)NC(SCC(=O)NCc1ccccc1)=NS2(=O)=O	.	4
O=C(c1ccc(Cl)cc1)C(Sc1ccc(Cl)cc1)c1ccccc1 (configuration not stated)	1.6	.
Clc1ccc(-c2nnc(NCCN3CCOCC3)c3ccccc23)cc1	-0.6	.
N#C/C(=C/Nc1cccc(Cl)c1)c1nc(-c2ccc(F)cc2)cs1	.	18
CCCC(=O)Oc1c(Sc2ccccc2)c(C)nn1-c1ccccc1	4.7	21
O=C(NCc1csc(-c2cccs2)n1)Nc1ccc(F)cc1F	.	16
Cc1cc(C)cc(C(=O)OCC(=O)c2c(N)n(C)c(=O)n(C)c2=O)c1	.	2
Cc1ccc(/C=C/C(=O)NCC(c2ccco2)N2CCCC2)o1 (configuration not stated)	.	-9
CSc1ccc(/C=C/C(=O)N2CCC(C(N)=O)CC2)cc1	.	-6
O=C(c1cccc2ccccc12)N1CCCc2ccccc21	-0.8	1
COc1ccc(C=Nc2cccc(C(N)=O)c2)cc1OC	-0.4	.
Cc1nc2nc(C(F)(F)F)[nH]c2cc1Br	2.1	9
CC(C)(C)C(=O)CSc1nnc(-c2ccccc2)o1	-16	6
Cc1cc(C)c(Nc2n[nH]c(=O)[nH]2)cc1C	.	-7
c1cn(-c2ccc(-c3ccn[nH]3)cc2)cn1	0.8	.
COc1nc(SC)nnc1C	.	-3

More structures:
SMILES	MgrA-DNA mod	S aureus helic
O=C(CSc1nc2cc(Cl)ccc2o1)c1ccc(F)cc1	0.1	23
N#C/C(=N\Nc1ccc(S(N)(=O)=O)cc1)C(=O)Nc1ccc(S(N)(=O)=O)cc1	.	11
Cc1ccc(Oc2ccc3nnc(-c4ccccc4)n3n2)cc1C	5.0	.
O=C(Cn1cccc1C(=O)c1ccccc1)NCc1ccco1	.	20
CSc1cc(-c2ccc(Cl)cc2)[nH]n1	0.9	.
FC1(F)C2C3CC4C5C3C1C5C(F)(F)C42 (configuration not stated)	.	-20
CCc1nnc2c(N3CCCc4ccccc43)nc3ccccc3n12	.	7
Cc1cc(NC(=S)NC(=O)c2cn(-c3ccccc3)nc2-c2cccc(Br)c2)no1	.	-8
CCCN1C(=O)/C(=c2\sc3n(c2=O)C(c2ccc(OC)cc2)C(C(=O)OCC)=C(C)N=3)c2ccccc21 (configuration not stated)	-2.7	.
CC1=NN(c2ccccc2)C(c2ccccc2)C1 (configuration not stated)	2.5	8
Cc1ccc(NC(=O)C2CCCN2S(=O)(=O)c2ccc(Cl)cc2)cc1 (configuration not stated)	-0.5	-10
CCN(c1ccc(OC)cc1)S(=O)(=O)c1ccc2c(c1)CCCC(=O)N2	.	2
Cc1ccc(C(=O)Nc2ccc(Br)cc2C)cc1I	-0.2	12
O=C(CC1CCCCC1)N1CCN(c2ccccc2)CC1	0.7	-2
CCCc1oc2c(c(=O)c1CC)C(=O)CC(C)(C)C2	1.9	0
Cc1cc(/C=C(/C#N)C(=O)NCc2ccccc2)c(C)n1-c1cccnc1	-2.2	11
O=C(CCN1C(=O)c2ccccc2C1=O)N1CCN(c2cccc(Cl)c2)CC1	-0.4	10
CC1(C)CC(O)c2ccccc2O1 (configuration not stated)	.	-7
O=C(O)C1C2C=CC(C2)C1C(=O)N(Cc1ccccc1)Cc1ccccc1 (configuration not stated)	6.8	7
CCOC(=O)c1sc2nc3n(c(=O)c2c1C)CCCC3	-0.5	17
Cc1ccc2nc(NCC(c3c(F)cccc3Cl)N(C)C)cc(=O)n2c1 (configuration not stated)	.	-15
O=C(COc1c(CO)cc(Br)cc1CO)NC1CCCc2ccccc21 (configuration not stated)	.	12
Cc1c(NS(=O)(=O)c2ccc(NC(=O)CCC(=O)O)cc2)c(=O)n(-c2ccccc2)n1C	-0.5	.
N#Cc1c(NC(=O)CSc2nc3ccccc3o2)sc2c1CCCC2	-0.7	.
CC(C(=O)c1ccc(Cl)cc1)n1nc(-c2ccco2)ccc1=O (configuration not stated)	7.7	-8
Cc1nc(N2CC(C)OC(C)C2)c2nnn(Cc3c(F)cccc3Cl)c2n1 (configuration not stated)	1.8	-5
COc1ccc(CN(CCN2CCOCC2)C(=O)c2cc3sccc3n2Cc2ccccc2)cc1	3.4	-7
Cc1cccc(N2CCN(C(=O)CSc3nc4ccccc4nc3N3CC(C)OC(C)C3)CC2)c1C (configuration not stated)	.	35
COc1ccc(C2(CNC(=O)c3ccc(NC(=O)c4ccco4)cc3)CCOCC2)cc1	-1.5	5
Cc1ccc(S(=O)(=O)N2CCC(NC(=O)Cc3ccccc3)CC2)cc1	0.3	.
Cc1oc(S(=O)(=O)N2CCCCC2)cc1C(=O)Nc1ccccc1	.	-16
Cc1cc(C(=O)Cn2cnc3sc4c(c3c2=O)CCC(C)C4)c(C)n1Cc1ccco1 (configuration not stated)	.	-14
CCOc1cc(C(=O)Nc2ccc(N3CCCC3=O)cc2)cc(OCC)c1OCC	-2.4	1
Cc1nn(C)c(C)c1Sc1ccccc1N	-0.3	-3
O=C(Nc1nc2c(Cl)cccc2s1)c1c(F)cccc1F	.	-13
O=C(NCC1COc2ccccc2O1)c1ccc2c(c1)OCCO2 (configuration not stated)	.	3
CCc1ccc(NC(=O)CSc2c3c(nc4ccccc24)CCCC3)cc1	-0.4	14
CC(OC(=O)c1cc2sccc2n1C)C(=O)NC1CCCC1 (configuration not stated)	16	13
Cc1ccc(-c2csc3nc(CCl)[nH]c(=O)c23)cc1	7.0	-14
O=C1CCC(=O)N1CNc1ccccc1	-1.1	-1
Cc1ccc(C(=O)NC(=S)Nc2ccc(-c3ccc(CO)o3)cc2)cc1	7.2	7
NC(=O)CCn1c(=O)sc2ccccc21	.	6
CCc1nc2cccnc2n1-c1ccc(CC(=O)N2CCC3(CC2)OCCO3)cc1	.	7
O=S(=O)(c1cccc2ccccc12)N1CCCCC1	.	9
O=C1CCC(=O)N1c1ccc(S(=O)(=O)NCc2csc3ccc(Cl)cc23)cc1	-1.8	.
O=c1[nH]c2cc(Cl)c(Cl)cc2n1-c1ccncc1	.	13
CCOCCOC(=O)C1=C(C)NC2=C(C(=O)CC(c3ccc(OC)cc3)C2)C1c1cccc([N+](=O)[O-])c1 (configuration not stated)	-1.8	.
COc1ccc(C(=O)CC2(O)C(=O)N(CC(N)=O)c3ccccc32)c(OC)c1 (configuration not stated)	.	20
CC(C)NC(=O)Oc1noc2ccc(Cl)cc12	4.7	.
Cc1cc2oc(=O)cc(COC(=O)CCC3NC(=O)NC3=O)c2cc1C(C)C (configuration not stated)	.	-3
COc1ccccc1-c1nc2ccccc2c(=O)o1	.	-8
COC(=O)c1cc2ccsc2n1CC(=O)N1CCCc2ccccc21	-0.8	6
Cc1ccc(NCCNc2ccc(C)cc2)cc1	4.7	21
O=C(CCn1c(=O)oc2ccccc21)N1CCN(c2ccccc2Cl)CC1	.	-11
C#CCOc1ccc(C(=O)OCC)cc1	2.7	.
CC1(C)C(=O)OC2(c3ccc(Cl)cc3)C1OC(=O)C2(C)C (configuration not stated)	0.5	3
c1ccc(-c2nc(NN3CCCCC3)nc3ccccc23)cc1	.	-2
O=C(COC(=O)c1c2c(nc3ccccc13)CCC2)Nc1ccc2c(c1)OCCO2	.	3
CCc1ccc(NC(=O)Cn2c(=O)n(CCC(=O)NCc3ccccc3)c(=O)c3sccc32)cc1	0.3	5
COc1cccc(C2CC(C(F)(F)F)n3ncc(C(=O)N4CCCCC4C)c3N2)c1 (configuration not stated)	-2.0	12
Remaining list, next part:
SMILES	MgrA-DNA mod	S aureus helic
CN1CCCN(C(=O)c2ccc(S(=O)(=O)N3CCCCC3)cc2)c2nc3ccccc3nc21	.	7
OC(CNCC1COc2ccccc2O1)COC1CCCc2ccccc21 (configuration not stated)	.	-6
CCOC(=O)c1cnc(SC)nc1-c1ccccc1	.	10
Cc1cc(N2CCN(c3ccc(F)cc3)CC2)nc2cc(O)ccc12	.	8
O=C(NC(c1ccccc1)c1ccccc1)c1ccco1	-6.7	15
CC1=CS/C(=C(/C#N)C(=O)NCc2ccco2)N1c1ccccc1	.	-21
O=C(CCCN1C(=O)/C(=C/c2cccc(Br)c2)SC1=S)Nc1ccc(C(=O)O)cc1	-0.7	.
COc1ccccc1N1C(=O)c2ccc(C(=O)Nc3cc(C)on3)cc2C1=O	0.0	-1
CCC(=O)N1CCc2cc(S(=O)(=O)NCCN(C)C)ccc21	.	18
CCOC(=O)c1cnc(N)nc1C(F)(F)F	-0.4	.
CCC1Cc2c(nc3c4c(nc(N5CCOCC5)c(C#N)c24)NC2(CCCCC2)N3)O1 (configuration not stated)	.	35
COc1ccc(S(=O)(=O)N2CCN=C2SC)cc1	.	6
CC(=O)Oc1ccc2cc(-c3nc4c(s3)CCc3ccccc3-4)c(=O)oc2c1	8.3	-73
Cc1c(Nc2ncnc3sc4c(c23)CCCC4)c(=O)n(-c2ccccc2)n1C	-1.1	-1
CN1C=CC=C/C1=C(/C#N)C(=O)NC1CCCCC1	.	-12
CCC(C)(C(=O)Nc1cccc(C)c1)N1CCC1=O (configuration not stated)	-4.0	19
CC(C)(C)NC(=O)c1c(F)cccc1F	1.4	6
CCOC(=O)c1sc(=Nc2ccccc2)n(Cc2ccccc2)c1C	0.7	5
CCCN1C(=S)NS(=O)(=O)c2ccccc21	.	2
CS(=O)(=O)N(CC(=O)Nc1ccc(S(=O)(=O)N2CCCCC2)cc1)c1ccccc1F	-1.2	-4
COc1ccc(C2=Cc3ccccc3C(C)(C)O2)cc1	0.2	11
CC1CN(S(=O)(=O)c2c[nH]c(=O)[nH]c2=O)CC(C)O1 (configuration not stated)	.	-6
COc1ccc(N2C(=O)C3C4C=CC(O4)C3C2=O)c([N+](=O)[O-])c1 (configuration not stated)	-3.5	.
CS(=O)CC(O)(c1ccc(Cl)cc1)c1ccc(Cl)cc1 (configuration not stated)	-2.0	.
CC1=C(/C=C/C(C)=C/C=C/C(C)=C/C(=O)O)C(C)(C)CCC1	-0.2&2.6&3.4	.
CC(C)c1nc2ccccc2n1C1CC(=O)N(c2ccc(Cl)cc2)C1=O (configuration not stated)	-0.2	.
O=C(O)CCN1C(=O)/C(=C/c2ccccc2)SC1=S	.	-15
CCOC(=O)c1cc(CSc2nnc(SC)s2)on1	-1.8	.
COc1ccc(N2CCN(C(=O)COC(=O)c3cc[n+]([O-])cc3)CC2)cc1	.	-3
CC(C)CCn1c(CO)nc2ccccc21	.	1
O=C(Cc1c(Cl)cccc1Cl)N1CCN(S(=O)(=O)c2cccs2)CC1	.	14
CCOC(=O)c1cc(CSc2nc3ncccc3[nH]2)on1	.	15
COC(=O)c1ccc(COC(=O)Cn2c(C)csc2=O)o1	.	-9
CCCC1=NN2C(=N)/C(=C/c3ccc(OC(=O)c4cccs4)c(OC)c3)C(=O)N=C2S1	1.4	20
CC(=O)Nc1ccc(NC(=O)c2ccc(CS(C)(=O)=O)cc2)cc1	.	-8
N#Cc1cccnc1N1CCCN(C(=O)Nc2ccccc2)CC1	.	3
COc1ccc2nc(NC(=O)C(F)F)sc2c1	.	22
CCC(C)OC(=O)c1[nH]c2c(c1C)C(=O)CC(c1ccc(N(C)C)cc1)C2 (configuration not stated)	.	10
NC(=O)c1ccc(-n2nnnc2SCc2ccccc2)cc1	.	8
COc1ccc2cc(-c3nc4ccccc4s3)c(=O)oc2c1	.	-21
COc1ccc(C2C(C#N)=C(SCC(=O)Nc3ccccc3)NC3=C2C(=O)CC(C)(C)C3)cc1 (configuration not stated)	.	-8
COC(=O)C1=C(Nc2ccc(OC(=O)c3ccccc3Cl)cc2)CSC1	-2.9	.
N#CC(c1ccccc1)C(C#N)c1ccccc1 (configuration not stated)	3.1	.
COc1ccc(-n2c(=S)n(CN3CC(C)OC(C)C3)c3ccccc32)cc1 (configuration not stated)	.	7
